StopGo reporter: High Throughput Screening for Foot and Mouth Disease Virus Antivirals; human cells with a luciferase reporter of 2A StopGo recoding; control for the full effect not named in the record; Potency, µM (top dose mostly 57.9 µM), without a hit: at the top dose signal change, negative = less light; 410,000 tested, 1.2% active; AID 1159524, 2015; active = well fitted falling curve with a large enough effect; inconclusive = small, poorly fitted or top-dose-only effect; inactive = no such curve, though single readings can be large or run the other way; tested in HEK293T cells; further: on the % scale 0 is the no-effect control and ±100 the full control effect; nearly all actives have a fitted effect of over 45% in size; luciferase light after 4 h
Cruzain inh Det: qHTS Assay for Promiscuous and Specific Inhibitors of Cruzain (with detergent) | AID 1478, 2009 | 200,000 tested, 0.43% active | Potency, µM, without a hit: max response, negative = inhibition, most hits filed as inhibitors | purified cruzain, Z-FR-AMC fluorescence, 0.01% Triton | Cruzipain (Trypanosoma cruzi), P25779;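 further: plate controls were neutral wells for no effect and buffer without enzyme for full effect; nearly all actives have a fitted effect of over 40% in size; top concentration of the series not given in the record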
Target sequence (P25779 123-467 limits assumed): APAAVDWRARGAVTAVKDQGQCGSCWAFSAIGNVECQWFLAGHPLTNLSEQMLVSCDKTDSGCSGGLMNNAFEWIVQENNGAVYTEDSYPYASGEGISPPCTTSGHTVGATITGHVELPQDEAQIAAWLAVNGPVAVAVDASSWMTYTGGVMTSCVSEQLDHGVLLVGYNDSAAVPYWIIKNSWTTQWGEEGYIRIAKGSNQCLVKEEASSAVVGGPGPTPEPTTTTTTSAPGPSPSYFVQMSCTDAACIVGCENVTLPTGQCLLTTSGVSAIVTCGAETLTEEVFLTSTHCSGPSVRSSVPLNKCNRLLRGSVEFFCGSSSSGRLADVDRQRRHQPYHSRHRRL
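Steps: dispense cruzain (1.5 nM final) in acetate buffer pH 5.5 with DTT and 0.01% Triton X-100; pin-transfer compounds; incubate 15 min RT; add Z-FR-AMC (2 uM final); read fluorescence every 30 s, using the 60 s intensity change.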
NS1 inh: qHTS Assay for Inhibitors of Influenza NS1 Protein Function; S. cerevisiae slowed by influenza A NS1, growth recovery by OD600; Potency, µM (titrated, usually from 46.1 µM), for the others: at the highest dose activity, positive = more growth; 270,000 tested, 0.4% active; active means well fitted rising curve with a large enough effect; inconclusive means small, poorly fitted or top-dose-only effect; inactive means no such curve, though single readings can be large or run the other way; further: nearly all actives have a fitted effect of over 50% in size
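OD600 was taken as the measure of yeast growth restored by compound in an NS1-expressing S. cerevisiae strain. Cells had been washed out of glucose medium and diluted 1:100 into galactose -URA medium, pH 6.0.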
LASV entry inh: qHTS for Inhibitors of binding or entry into cells for Lassa Virus; Potency, µM (titrated, usually from 37.9 µM), for the others: at the top dose activity change, negative = inhibition, usual class: inhibitors; 300,000 tested, 1.2% active; AID 540256, 2011; Lassa virus pseudotype entry inhibition, cell reporter; control for the full effect not named in the record; active means well fitted inhibition curve with a large enough effect; inconclusive means small, poorly fitted or top-dose-only effect, or effect the other way; inactive means flat fitted curve, though single readings scatter; tested in HEK293 cells; further: on the % scale 0 is the no-effect control and ±100 the full control effect; nearly all actives have a fitted effect of over 50% in size; luciferase read-out
Cruzain noTriton: qHTS Assay for Promiscuous and Specific Inhibitors of Cruzain (without detergent); Potency, µM, inactives show max response, negative = inhibition, usual class: inhibitors; Cruzipain (Trypanosoma cruzi), P25779; 200,000 tested, 2.3% active; purified cruzain, Z-FR-AMC fluorescence, no detergent;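 further: plate controls were enzyme without inhibitor for no effect and buffer without enzyme for full effect; nearly all actives have a fitted effect of over 40% in size; top concentration of the series not given in the record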
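Purified cruzain at 1.5 nM, pre-incubated 15 min with compound at room temperature in 100 mM sodium acetate pH 5.5, 5 mM DTT, 0.00005% Triton X-100. Reaction started with 2 uM Z-FR-AMC; AMC fluorescence increase over 60 s gives rate.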
SARS PLP yeast: qHTS of Yeast-based Assay for SARS-CoV PLP. Potency, µM (doses to about 32.9 µM), without a hit: at the top dose activity, positive = growth rescue. AID 485353, 2010. S. cerevisiae expressing SARS-CoV PLpro, growth rescue; control for the full effect not named in the record. 330,000 tested, 0.19% active; active means well fitted rising curve with a large enough effect; inconclusive means small, poorly fitted or top-dose-only effect; inactive means no such curve, though single readings can be large or run the other way; further: 0% is about no effect; nearly all actives have a fitted effect of over 55% in size; growth read by luminescence after 48 h
Marburg entry inh: qHTS for inhibitors of binding or entry into cells for Marburg Virus; Marburg virus pseudotyped entry inhibition, cell reporter; control for the full effect not named in the record; about a third of the inactives were read at about 46 µM; Potency, µM (top dose mostly 37.8 µM), without a hit: at the highest dose activity change, negative = inhibition, actives largely listed as inhibitors; 300,000 tested, 1.8% active; AID 540276, 2011; active = well fitted inhibition curve with a large enough effect; inconclusive = small, poorly fitted or top-dose-only effect, or effect the other way; inactive = flat fitted curve, though single readings scatter; tested in HEK293 cells; about a fifth of its hits are not listed in these tables; further: on the % scale 0 is the no-effect control and ±100 the full control effect; luciferase read-out
RE007 growth inh: qHTS Assay for Inhibitors of the HIV-1 protein Vpr; 360,000 tested, 0.21% active; AID 651644, 2012; S. pombe RE007 Vpr strain, BacTiter-Glo ATP luminescence, 24 h; control for the full effect not named in the record; Potency, µM (top dose mostly 92.2 µM), for the others: at the highest dose activity change, negative = less growth; active = well fitted falling curve with a large enough effect; inconclusive = small, poorly fitted or top-dose-only effect; inactive = no such curve, though single readings can be large or run the other way;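 further: on the % scale 0 is the no-effect control and ±100 the full control effect; nearly all actives have a fitted effect of over 50% in size; the assay follows cell death caused by Vpr and the record does not say whether a fall means rescue or toxicity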
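Fission yeast strain RE007, carrying one chromosomally integrated HIV-1 vpr copy, was seeded at OD 0.01 in PMG+AL medium with 23 nL pinned compound. After 24 h at 30 °C and 99% humidity, viability was read by BacTiter-Glo luminescence.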
Numbers without * were called inactive; ? = inconclusive; / = no result given; [ ] = dose if it differs, or a comment. Unless noted, the call rests on the fitted dose curve; in most records, active means well fitted curve in the direction sought with a large enough effect; inconclusive means small, poorly fitted or top-dose-only effect, or another doubt; inactive means no such curve, though single readings can be large; an effect the other way counts as inactive or inconclusive. Potency means the concentration at half of the fitted maximal effect.

Every second line gives: StopGo reporter, Cruzain inh Det, NS1 inh, LASV entry inh, Cruzain noTriton, SARS PLP yeast, Marburg entry inh, RE007 growth inh
1: Cc1ccc2c(=O)cc(C(=O)Nc3ccc(S(=O)(=O)Nc4ncccn4)cc3)oc2c1C
    ?, -2.2%, /, 6%[46.1 µM], -16%, /, 6%[46.1 µM], /
2: COc1ccc(CCNC(=O)CN(C)S(=O)(=O)c2cccs2)cc1
    -10%, /, /, 2%, /, 1%, 18%, -5%
3: COC(=O)C/C=C/[C@@H](C)[C@@H](/C=N/O[C@@H](C)c1cn([C@H](CO)Cc2ccccc2)nn1)NS(=O)(=O)c1ccc(C)cc1
    /, -0.5%, -8%, ?, ?, 6%, -27%, /
4: O=[N+]([O-])c1ccc(-c2cnc(SC(c3ccccc3)c3ccccc3)[nH]2)cc1
    ?, -6.9%, -17%, 3.5µM*, ?, -35%, ?, 9%
5: N#CC1=C(N)N(c2cccc(Cl)c2)C2=C(C(=O)CCC2)C1c1cc(CN2CCOCC2)cs1 (stereo not given)
    -15%, 0.2%, /, 11%[46.1 µM], -8%, /, -9%[46.1 µM], /
6: CCCCCCCNC(=O)C1(CC2CC(c3cccc(Br)c3)=NO2)CCNCC1 (stereo not given)
    -14%, /, 18%, /, /, -1%, /, 17%
7: CCCc1ccc(S(=O)(=O)N2CCC(Oc3ccc(-n4cnnn4)cc3)CC2)cc1
    -18%, 0.9%, /, ?, -1%, /, -2%[46.1 µM], /
8: Cc1ccc2c(C(=O)CN3CCSCC3)c(C)[nH]c2c1
    0%, -0.5%, -4%, 6%, 0%, 0%, ?, -5%
9: Cc1onc(-c2ccccc2Cl)c1C(=O)N1CCCCC1C(=O)O (stereo not given)
    -22%, 2.8%, 0%, /, -17%, 2%, /, -1%
10: Cc1nn(C)cc1/C=N/NC(=S)Nc1ccc(Cl)cc1Cl
    -10%, -4.7%, 8%, -2%, 4%, ?, ?, -1%
11: COc1cc(C(=O)NCc2nc(C)cs2)ccc1OC1CCN(C(C)=O)CC1
    -15%, /, 6%, 5%, /, -2%, ?, 7%
12: O=C(NCc1cccc(C(F)(F)F)c1)c1cccc(Cl)c1Cl
    20%, -7.6%, 13%, 6%, 3%, -42%, -1%, 7%
13: COc1ccccc1-n1ccnc(SCC(=O)NCc2ccccc2Cl)c1=O
    -2%, /, /, 2%, /, 5%, -2%, 5%
14: Nc1ccccc1C(=O)Nc1nccs1
    31%[activator], /, 3%, 23%[46.1 µM], /, -1%, -14%[46.1 µM], -12%
15: O=C(Nc1cc(S(=O)(=O)N2CCOCC2)ccc1N1CCCC1)c1ccc2c(c1)S(=O)(=O)c1ccccc1C2=O
    ?, /, 2%, -11%, /, 2%, -12%[46.1 µM], -16%
16: O=[N+]([O-])c1ccccc1/C=C/C=N/Nc1ccc(S(=O)(=O)Nc2ccc(Cl)cc2)cc1[N+](=O)[O-]
    40%[activator], /, /, 29%, /, 0%, -20%[46.1 µM], 5%
17: CCN1CCN(C(=O)c2cc3sccc3n2CC(=O)c2ccccc2)CC1
    0%, 3.7%, -2%, 15%, -10%, 4%, 4%, 6%
18: CC(C)CCNC(=O)CO/N=C/c1ccccc1OC(F)F
    -7%, -1.7%, 1%, ?, -3%, 2%, ?, -10%
19: Clc1c(OCCCn2ccnc2)ccc2ccccc12
    -9%, /, -92%, -13%[46.1 µM], /, -19%, ?, -5%
20: CCN(CC)c1ccc([N+](=O)[O-])cc1/C=N/NC(=O)CC#N
    -25%, -5.8%, 29%, -5%, -17%, 9%, 4%, -17%
21: CCCc1nn2c(=O)cc(CSCC(=O)Nc3ccc(OC)cc3)nc2s1
    -1%, /, -1%, /, /, 10%, /, -12%
22: CCOC(=O)N(O)c1ccc(C=Cc2ccccc2)cc1
    15%, /, /, 0.63µM*, /, /, 1.3µM*, 16%
23: CCOc1ccc(C2/C(=C(/O)c3ccc4c(c3)CC(C)O4)C(=O)C(=O)N2CCCn2ccnc2)cc1OCC (stereo not given)
    -25%, /, -17%, /, /, ?, /, -16%
24: Cc1ccc(C(=O)NC(NC(=O)c2ccc(C)cc2)c2cccc([N+](=O)[O-])c2)cc1
    4%, -2.3%, 6%, -17%, 10%, 15%, -24%, 5%
25: Cc1ccc(C2c3c(-c4ccccc4O)n[nH]c3C(=O)N2Cc2ccncc2)cc1 (stereo not given)
    18%, -4.5%, -90%, -15%, -2%, 6%, ?, -10%
26: CC(NC(=O)C(C)N1C(=O)c2cccc([N+](=O)[O-])c2C1=O)c1ccccc1 (stereo not given)
    -2%, /, 1%, 20%, /, -9%, 17%, 6%
27: O=C(CSC1=NS(=O)(=O)c2ccccc21)Nc1ccccc1
    ?, 0.8%, -113%, /, -9%, -6%, /, -25%
28: Cc1ccc(S(=O)(=O)Nc2ccc(C(=O)N3CCCC3)cc2)cc1
    39%[activator], /, 8%, 2%, /, 6%, -3%, -13%
29: CC(Sc1nc2c(c(=O)[nH]1)CCCC2)C(=O)Nc1ccc(Br)cn1 (stereo not given)
    -3%, /, -1%, 5%, /, 1%, 1%[46.1 µM], 1%
30: COc1cccc(-c2nc(SCC(=O)Nc3ccc4c(c3)OCCO4)c(-c3ccc(C)cc3)[nH]2)c1
    -14%, -2.7%, /, ?, ?, /, ?, /

Pulled by compound from the list above, 5 records:
Every second line gives: StopGo reporter, Cruzain inh Det, NS1 inh, LASV entry inh, Cruzain noTriton, SARS PLP yeast, Marburg entry inh, RE007 growth inh
2: COc1ccc(CCNC(=O)CN(C)S(=O)(=O)c2cccs2)cc1
    -10%, /, /, 2%, /, 1%, 18%, -5%
26: CC(NC(=O)C(C)N1C(=O)c2cccc([N+](=O)[O-])c2C1=O)c1ccccc1 (stereo not given)
    -2%, /, 1%, 20%, /, -9%, 17%, 6%
19: Clc1c(OCCCn2ccnc2)ccc2ccccc12
    -9%, /, -92%, -13%[46.1 µM], /, -19%, ?, -5%
20: CCN(CC)c1ccc([N+](=O)[O-])cc1/C=N/NC(=O)CC#N
    -25%, -5.8%, 29%, -5%, -17%, 9%, 4%, -17%
16: O=[N+]([O-])c1ccccc1/C=C/C=N/Nc1ccc(S(=O)(=O)Nc2ccc(Cl)cc2)cc1[N+](=O)[O-]
    40%[activator], /, /, 29%, /, 0%, -20%[46.1 µM], 5%

(more compounds)
Every second line gives: StopGo reporter, Cruzain inh Det, NS1 inh, LASV entry inh, Cruzain noTriton, SARS PLP yeast, Marburg entry inh, RE007 growth inh
31: CCOc1ccccc1C(=O)Nc1ccc2c(c1)N(C)C(=O)c1ccccc1S2
    ?, 0.6%, /, -15%[46.1 µM], ?, /, /, /
32: O=C(Nc1cccc(F)c1)Nc1cnccn1
    6%, /, -14%, /, /, -7%, /, -2%
33: CCn1c(SCC(=O)NCc2ccco2)nc2cccnc21
    7%, 0.9%, -7%, 14%, -22%, -7%, ?, 18%
34: Cc1onc(-c2c(Cl)cccc2Cl)c1COC(=O)c1ccc([N+](=O)[O-])cc1
    -9%, /, 6%, -2%, /, 1%, -18%[14.2 µM], -4%
35: Cc1cccc(CN2CCN(C(=S)Nc3ccccc3)CC2)c1
    -22%, /, -2%, /, /, 2%, /, -9%
36: Cc1ccccc1Nc1c(C)c(C)nc2ncnn12
    ?, /, 0%, -27%, /, 3%, ?, 8%
37: CCOc1ccc(N/C(N)=N/c2nc(CSc3nnc(C)s3)cc(=O)[nH]2)cc1
    -9%, /, 1%, ?, /, 1%, ?, 4%
38: CC(C)n1cc(C(=O)c2cc(Br)ccc2O)cc(C#N)c1=O
    -13%, -1.5%, -8%, -7%, 2%, 13%, -26%, ?
39: COC(=O)c1ccc(N=NN2CCOCC2)cc1
    11%, -5.8%, 4%, -19%, 9%, ?, ?, -4%
40: O=C(Nc1ccccc1C(=O)N1CCCC1)c1ccc(Cl)cc1Cl
    21%, /, 6%, /, /, -1%, -13%[46.1 µM], 22%
41: CN(C)c1nc(OCCOC(=O)c2ccccc2)nc(N(C)C)n1
    -1%, -3.8%, -51%, -9%, -7%, 14%, 0%, -4%
42: CC1CC(=O)Nc2ccccc2N1S(=O)(=O)c1ccc(F)cc1F (stereo not given)
    17%, /, -6%, -17%, /, -1%, 2%[46.1 µM], -9%
43: CCOc1ccc(CCNC(=O)c2ccc3c(c2)N(Cc2cccc(Cl)c2)C(=O)c2ccccc2S3(=O)=O)cc1OCC
    -8%, -0.6%, /, -18%[46.1 µM], -16%, /, /, /
44: CCN1C(=O)NC(=O)/C(=C\c2cn(CC(=O)N3CCCC3)c3ccccc23)C1=O
    -9%, /, -1%, 9%, /, 3%, 2%[46.1 µM], 8%
45: CCOc1ccc(NC(=O)CN2C(C(=O)OC)=C(c3ccccc3)c3cc(Cl)ccc3S2(=O)=O)cc1
    -14%, -3.8%, /, -1%[46.1 µM], -4%, /, -1%[46.1 µM], /
46: COc1ccc(S(=O)(=O)NCc2ccc(C(=O)N3CCC4(CC3)OCCO4)cc2)cc1
    -1%, 1.9%, -9%, 2%, 8%, -1%, 2%, 12%
47: CC(Nc1ncnc2nc[nH]c12)c1ccccc1 (stereo not given)
    0%, 0.4%, -32%, -8%, ?, 3%, -4%, -5%
48: Cc1nnc(SCC(=O)Nc2cccc([N+](=O)[O-])c2)n1CC1CCCO1 (stereo not given)
    7%, /, 7%, 4%, /, -2%, 8%, 11%
49: O=c1[nH]c2c(s1)C(c1ccccc1)C1C3CCC(C3)C1S2 (stereo not given)
    -5%, -7.6%, -6%, -17%, -13%, -28%, -16%, 11%

This is a random part of the collection, and some 4.8% of all compounds hit somewhere here.
